Yeast UUG start: modulators of start codon recognition fidelity in yeast; S. cerevisiae UUG-firefly luciferase reporter, luminescence/redox ratio; activity score, % at 18.7 µM; hit rate 0.13% among 350,000; AID 602363;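 active = replicate mean at a twofold rise or more, about +100% in these data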;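 also: firefly luciferase made from a UUG start codon reports start codon fidelity; reporter light over untreated wells divided by growth signal over untreated wells; some hits fall short of that in this replicate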
HIV Env fusion: inhibitors of HIV Env-mediated cell fusion. HeLa-JRFL Env/CEM21 cell fusion, luciferase. hit rate 1.1% among 360,000. AID 651610. inhibition, % at 12.3 µM;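 active = mean replicate inhibition score of at least 50 and every replicate individually at or above 50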;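 also: 0% = plate neutral controls and 100% = maraviroc near 300 nM; one replicate is shown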
CSC inhib: cancer stem cell inhibition; AID 2717; hit rate 1.1% among 300,000; inhibition, % at 7.5 µM; cancer stem cell-like cells viability, luminescence;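 active = mean at 75% or more and at least half the replicates too; tested in HMLE shEcad cells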;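 also: 0% = median of negative and 100% = median of positive control wells; the first replicate is given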
Rce1 inhib: inhibitors of yeast Ras-converting enzyme. Q03530. yeast membranes, quenched prenylated peptide cleavage fluorescence. calls only. hit rate 0.27% among 290,000. AID 2563;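 active = fall in fluorescence gain of 50% or more versus controls, with final raw signal at or below 3038400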;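 also: plate controls were neutral control wells for no effect and wells lacking membranes for full effect; tested at 10 µM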
MT1-MMP act inh: MT1-MMP (human) activation inhibition | P50281 | HT1080 RFP-PRO-GFP cells, GFP/RFP ratio fluorescence, overnight; percent of plate control window, DMSO zero | GFP/RFP ratio change, % at 20 µM | hit rate 0.061% among 360,000 | AID 651647;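 active = GFP/RFP ratio change of at least 30% with cell ATP level not reduced by more than half and red fluorescence within 50% of control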; also: strong numbers were not always called active
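system = RFP-PRO-GFP reporter HT1080 cells | dosing = 20 µM single dose, 1% DMSO | timing = overnight cell settling, then overnight compound exposure, 37 °C, 5% CO2 | read-out basis = GFP/RFP fluorescence ratio | controls = DMSO and RFP-L50D-GFP cell wells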
PABP polyA inh: blocks human PABP binding to poly(A) RNA | inhibition, % at 35 µM | hit rate 1% among 290,000 | P11940 | fluorescence polarization;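 active = 50% or more with normal probe brightness, or confirmed in later tests; about a fifth of its hits are not listed in these tables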;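 also: calls also rest on retests at 20 µM and on dose response follow-up; controls were probe without protein and protein plus probe with vehicle; some compounds called inactive have numbers as strong as hits; many hits fall short of the cut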
Target sequence (P11940 whole entry, looked up): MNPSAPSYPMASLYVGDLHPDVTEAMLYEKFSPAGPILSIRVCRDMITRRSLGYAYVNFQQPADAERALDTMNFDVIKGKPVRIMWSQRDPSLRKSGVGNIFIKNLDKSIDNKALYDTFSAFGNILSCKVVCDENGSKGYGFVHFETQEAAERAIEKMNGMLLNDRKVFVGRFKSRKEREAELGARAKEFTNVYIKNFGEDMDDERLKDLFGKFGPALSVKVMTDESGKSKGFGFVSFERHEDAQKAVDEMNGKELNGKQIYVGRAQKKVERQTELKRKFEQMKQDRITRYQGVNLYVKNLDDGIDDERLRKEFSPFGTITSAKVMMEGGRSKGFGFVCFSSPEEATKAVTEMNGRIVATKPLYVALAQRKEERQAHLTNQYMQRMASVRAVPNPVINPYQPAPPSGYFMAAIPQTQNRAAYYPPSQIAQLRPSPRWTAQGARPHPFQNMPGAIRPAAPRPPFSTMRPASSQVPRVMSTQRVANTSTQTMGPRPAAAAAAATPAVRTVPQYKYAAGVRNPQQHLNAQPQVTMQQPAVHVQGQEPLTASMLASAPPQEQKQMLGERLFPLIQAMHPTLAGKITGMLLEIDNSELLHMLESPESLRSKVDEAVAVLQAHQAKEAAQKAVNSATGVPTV
eIF4H FP inh: inhibitors of RNA binding by human eIF4H. eIF4H fluorescence polarization binding assay. inhibition, % at 35 µM. AID 2012. hit rate 0.94% among 290,000. Q15056;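 active = 50% or more with normal probe brightness, or confirmed in later tests; about a fifth of its hits are not listed in these tables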;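 also: calls also rest on retests at 20 µM and on dose response follow-up; 0% = protein and probe with vehicle and 100% = probe without protein; strong numbers were not always called active; many hits fall short of the cut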
MT1-MMP act inh RFP: also measured in MT1-MMP act inh; calls as there; RFP signal change, %; measured here: RFP expression control read;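 0 = vehicle wells; hits needed this value within 50% of zero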
* marks the source's active call; other numbers are inactive results; i = inactive; x = no result given; & = joins results of further samples. Not all compounds are listed; count on the stated rates, not on these rows.

SMILES	Yeast UUG start	HIV Env fusion	CSC inhib	Rce1 inhib	MT1-MMP act inh	MT1-MMP act inh RFP	PABP polyA inh	eIF4H FP inh
CCCn1c(=O)c2[nH]c(-c3ccc(OCC(=O)Nc4ccc(C#N)cc4)cc3)nc2n(CCC)c1=O	-7.3	-4.0	4.1	x	-4.4	0.5	x	x
CCS(=O)(=O)Nc1cccc(-c2ccc3nnc(-c4cccnc4)n3n2)c1	-14.9	-5.5	0.8	i	4.1	6.0	x	x
Cc1c(Cl)cccc1NC(=S)NCCC(C)C	-32.6	-6.9	-5.6	i	1.1	-6.8	-5.0	-10.7
COCCNC(=O)Cn1c(=O)n(Cc2ccc(C(=O)NCCc3ccc(OC)c(OC)c3)cc2)c(=O)c2ccccc21	-7.8	3.9	-13.0	i	-2.9	-2.1	1.9	-2.3
COc1ccc(OC)c(/C=C2\NC(=O)NC2=O)c1	x	4.4	-10.5	i	-4.3	-6.3	-7.1	0.2
COc1cc(OC)cc(-c2c(-c3cccs3)c3cc(-c4ccn[nH]4)ccc3n2C)c1	-8.3	-13.8	87.1*	x	-3.1	1.8	x	x
COc1ccc(-c2noc(C3CCCN(C(=O)c4cccc(F)c4)C3)n2)cc1 (stereo unspecified)	6.5	11.0	-5.1	i	5.1	-13.4	10.3	0.6
Cc1ccc([C@@H]2C[C@H]3[C@@H](CN2S(=O)(=O)c2ccc(C)cc2)C(=O)C[C@@H](c2cccc(Cl)c2)N3S(=O)(=O)c2ccc(C)cc2)cc1	-16.3	5.7	x	x	-4.3	-4.6	x	x
O=C(NCCc1ccccc1)C1CCCN1S(=O)(=O)c1ccc(Cl)cc1 (stereo unspecified)	0.1	-0.7	1.8	i	1.4	-0.1	12.0	0.1
Cc1ccc(C(=O)Nc2ccc(N3CCN(S(C)(=O)=O)CC3)cc2)cc1	-13.3	x	-2.9	i	-0.1	2.1	-7.0	-2.6
Cn1cc(CN2CCCC(CNS(=O)(=O)c3cccc4cccnc34)C2)cn1 (stereo unspecified)	-11.9	-8.7	0.1	x	-0.3	2.3	0.0	-14.3
Cn1ncc(C#N)c1NC(=O)C1CC(c2ccc(Cl)cc2)=NO1 (stereo unspecified)	-16.5	x	0.7	i	-5.6	2.8	2.9	-3.8
COc1ccc(C(=O)NNC(=O)c2cc3ccccc3cc2O)cc1	8.4	-17.7	23.5	i	3.6	-0.9	x	x
Cc1ccc(S(=O)(=O)Nc2nc3ccc(S(=O)(=O)N4CCCC4)cc3s2)cc1	-16.6	-56.7	3.4	i	-0.1	6.4	7.4	0.6
CC(C)CN1CCC1(C)C(=O)Nc1cccc(C#N)c1 (stereo unspecified)	-6.5	5.7	x	x	0.8	4.7	x	x
N#C/C(=C\c1ccc(F)cc1)C(=O)NC1CCS(=O)(=O)C1 (stereo unspecified)	-11.5	-3.2	-12.7	i	-1.7	0.4	-0.8	-1.3
CC(C(=O)NC1CCCC1)N(C(=O)c1snc(C(N)=O)c1N)c1ccc2c(c1)OCCO2 (stereo unspecified)	-7.5	-33.0	-4.1	i	-0.5	1.3	3.8	-8.6
O=C(COc1ccc(-c2nnco2)cc1)N1CCOCC1	-4.9	11.8	-5.8	x	-8.4	0.9	x	x
O=C(Cn1ccc(C(F)(F)F)n1)N/N=C/c1ccc(N2CCOCC2)cc1	x	0.8	0.5	i	0.4	5.7	-2.8	-7.9
Cc1ccc(OCC(=O)Nc2cnn(CCCC(=O)O)c2)c([N+](=O)[O-])c1	x	-8.6	-11.9	i	-1.0	-6.7	5.6	-7.9
COC(=O)CCCC1=CC2=CC(=O)C(C)(OC(=O)c3cccs3)C(=O)C2=CN1c1ccccc1 (stereo unspecified)	-13.3	2.4	-13.5	i	4.5	9.5	x	x
O=C(NCc1ccccn1)c1ccc(Cl)c(S(=O)(=O)N2CCOCC2)c1	-31.1	5.0	-6.7	i	4.1	0.6	7.4	-0.9
CC(=O)c1cccc(NC(=O)CN2C(=O)c3cccnc3Oc3ccc(Cl)cc32)c1	x	3.7	-11.6	i	-8.5	-0.1	x	x
CN(C)c1ccnc2sc(C(=O)c3ccc(Br)cc3)c(N)c12	x	-2.9	26.1	i	-0.1	-0.3	8.4	12.8

Three compounds from above, limited to eIF4H FP inh, HIV Env fusion and MT1-MMP act inh.
| Structure | eIF4H FP inh | HIV Env fusion | MT1-MMP act inh |
| --- | --- | --- | --- |
| CN(C)c1ccnc2sc(C(=O)c3ccc(Br)cc3)c(N)c12 | 12.8 | -2.9 | -0.1 |
| O=C(COc1ccc(-c2nnco2)cc1)N1CCOCC1 | x | 11.8 | -8.4 |
| O=C(NCc1ccccn1)c1ccc(Cl)c(S(=O)(=O)N2CCOCC2)c1 | -0.9 | 5.0 | 4.1 |

Next structures:
SMILES	Yeast UUG start	HIV Env fusion	CSC inhib	Rce1 inhib	MT1-MMP act inh	MT1-MMP act inh RFP	PABP polyA inh	eIF4H FP inh
Cc1nc2cc(NC(=O)Nc3ccccc3Cl)ccc2n1C	x	-119.5	13.0	i	4.5	1.5	-11.2	-1.7
Cc1cc(C(=O)NNC(=S)NCc2ccco2)nn1C	x	-2.9	-2.3	i	0.5	-0.1	3.6	-3.9
Cc1cc(C)c(S(=O)(=O)Nc2ccnc(-c3cccnc3)n2)c(C)c1	x	-13.5	1.0	i	-1.3	1.1	0.4	5.7
COC(=O)CCCC(=O)N1CCC(n2nccc2NC(=O)CCOc2ccccc2)CC1	-8.7	-1.0	1.2	i	-0.8	1.1	5.0	-3.3
O=C(COC(=O)c1cc[n+]([O-])cc1)Nc1ccc(SC(F)F)cc1	0.4	-22.5	-4.6	i	-4.3	-0.9	-2.0	-13.9
O=C(Nc1ccccc1)c1cc([N+](=O)[O-])ccc1NCc1cccnc1	-16.1	-0.2	x	i	3.4	3.4	3.6	5.2
C#CCN(C[C@@H]1[C@@H](OC(=O)NCc2ccco2)[C@@H](OC(=O)NCc2ccco2)CN(C(=O)OC(C)C)N1C(=O)OC(C)C)S(=O)(=O)c1ccc(C)cc1	-17.5	-24.0	x	x	-1.3	-10.5	x	x
CCCC(CCC)C(=O)O	-5.5&-26.6	15.4&12.3	2.3&6.1	i	-1.3&-0.9	4.7&-3.1	x	x
CN(C)c1cccc2c(/C=N/O)ccc(N(C)C)c12	x	0.7	-12.3	i	0.7	6.0	-4.9	28.4
O=C(COC(=O)CCC1CCCC1)Nc1ccc(F)cc1	-17.3	x	-10.6	x	6.5	-0.1	x	x
CC(CCc1ccccc1)NC(=O)COC(=O)c1cccnc1Cl (stereo unspecified)	-26.9	-2.9	1.0	x	3.7	7.7	x	x
CCCN(CC(=O)Nc1ccccc1C)C(=O)COc1c(Cl)cccc1Cl	-7.9	-23.5	1.0	i	-3.2	-0.4	x	x
Cc1cc(C(=O)NC(C)c2ccncc2)cs1 (stereo unspecified)	-20.0	-3.5	-18.3	i	-1.7	2.5	0.6	-5.2
CC1=C(C(=O)N(C)C)CC(CC(=O)NCC2CCCCC2)C(=O)N1Cc1ccccc1 (stereo unspecified)	1.7	-14.3	x	x	1.5	3.8	x	x
O=C(NCCC1CCCCN1S(=O)(=O)c1ccc(F)cc1)C(=O)NCc1ccccn1 (stereo unspecified)	-12.2	-1.1	-9.6	i	-2.1	0.7	x	x
CCc1nnc(NC(=O)CC(=O)Nc2ccccc2C(=O)O)s1	-13.8	x	-11.8	i	2.2	5.3	34.4	-1.9
O=C(Cc1ccccc1[N+](=O)[O-])NNC(=O)c1ccncc1	-12.3	-0.8	x	x	2.5	2.0	x	x
Cc1ncc(C(O)c2ccccc2)n1Cc1ccccc1 (stereo unspecified)	-24.2	-2.1	x	x	2.7	-0.4	x	x
CC(=O)c1c[nH]c(C(=O)NC2CCCCCC2)c1	-8.6	-9.1	-8.5	i	3.4	5.1	0.9	3.8
Cc1ccc(CC(NC(=O)C2CCCCC2)C(=O)O)cc1 (stereo unspecified)	-35.2	-19.9	x	x	2.1	-0.8	x	x
CSCCC(NC(=O)c1ccccc1)C(=O)OCC(=O)N(C)CCC#N (stereo unspecified)	x	5.4	3.2	i	0.2	5.9	3.2	-3.4
C=C(C)c1cccc(C(C)(C)NC(=O)N2CCC(C(N)=O)CC2)c1	x	-0.1	-8.1	i	0.7	0.9	24.6	6.7
CN(Cc1nccn1C)C(=O)c1cc(COc2cccc(C(F)(F)F)c2)on1	-20.7	-4.2	29.8	i	3.5	1.0	-9.1	-0.2
Cc1nonc1OCCCNc1ccc([N+](=O)[O-])cc1Cl	-17.1	-32.2	1.1	x	3.3	-1.8	-6.0	2.5
S=C1NC(c2cccs2)=CC(c2ccc(Br)cc2)N1 (stereo unspecified)	-15.1	24.4	x	i	4.3	-5.5	-0.5	0.8
Cc1cc(=O)n2[nH]c(C)cc2n1	x	7.4	-2.4	i	5.1	5.6	-11.6	-7.2
O=C(/C=C/c1ccco1)N(Cc1ccccc1)C1CCS(=O)(=O)C1 (stereo unspecified)	-0.7	4.7	-0.6	i	4.0	5.1	8.7	3.9
CCCc1c(C)nc2ccccc2c1SCCC#N	x	16.0	-0.8	x	-9.7	-6.7	12.6	-1.3
COc1ccc(C2CC(c3cccc(F)c3)=NN2c2ccc(S(N)(=O)=O)cc2)cc1 (stereo unspecified)	1.7	14.2	x	x	-3.6	-2.1	x	x
O=[n+]1c2c(n([O-])c3c1CCC3)CCCC2	-15.0	x	-14.8	i	4.0	5.4	-2.0	-11.4
COc1cc(NC(=O)COc2cc(C)cc3oc(=O)c(C)c(C)c23)cc(OC)c1OC	-12.3	0.3	-6.1	i	6.1	2.0	3.8	-1.3
Cc1ccc(NC(=O)c2ccc(NCCCN3CCC(C)CC3)c([N+](=O)[O-])c2)c(C)c1	-10.7	14.4	21.4	i	1.2	-0.1	-1.7	-17.8
CCOC(=O)c1c(-c2ccccc2)oc2ccc(O)c(CN3CCOCC3)c12	-23.5	x	-9.9	i	-11.6	-11.8	5.0	-6.1
N#C/C(=N\Nc1c(Cl)cccc1Cl)C(=O)NN	-17.3	-107.8	-1.7	i	2.0	3.7	2.0	-2.2
Nc1nc(SCc2nc3scc(-c4ccccc4)c3c(=O)[nH]2)n[nH]1	-14.9	x	-6.9	i	1.3	-2.1	-12.5	4.0
O=C(COC(=O)c1cc(S(=O)(=O)N2CCOCC2)ccc1F)Nc1ccc(Cl)cn1	-11.5	x	13.5	x	-4.9	2.5	x	x
O=C(CSc1nnc(CNc2ccc(F)cc2)o1)N1CCCc2ccccc21	x	-17.7	0.6	i	2.2	3.2	-6.1	4.2
Cc1ccc(CNc2nc(N)c([N+](=O)[O-])c(Nc3cccc(F)c3)n2)cc1	x	-24.0	11.4	i	4.8	-0.7	-3.7	-3.9
CNc1cccc(-c2ccc(C(C)=O)s2)n1	0.2	-35.3	x	x	4.1	-5.2	x	x
Cc1ccccc1NC(=O)c1cc(-c2ccco2)nc2ccccc12	-20.3	10.5	x	x	0.5	2.2	x	x
NC(=S)N/N=C/c1ccc(Br)o1	x	-22.4	-9.2	i	-0.3	-1.2	3.3	-0.1
CN(C)S(=O)(=O)NCc1ccc2c(c1)OCO2	-4.5	-54.8	-4.8	i	4.7	3.6	-10.3	-14.6
O=[N+]([O-])c1ccc(Sc2n[nH]c(-c3ccc(Cl)cc3Cl)n2)nc1	-13.4	-42.4	39.9	i	3.2	-1.3	23.0	-0.8
Cc1csc(SCC(=O)NC(=O)NCc2ccccc2)n1	-8.6	-29.5	-8.6	i	16.6	3.0	3.3	-10.5
CN(C)c1ccc(C(=O)C(=O)c2ccccc2)cc1	x	-17.4	-4.2	i	3.1	3.2	-2.2	-8.9

Compound activity: PubChem, several laboratories
